D2 potentiator = Beta-Arrestin HTS for Positive Allosteric Modulators of the Human D2 Dopamine Receptor: Potentiators; D(2) dopamine receptor (Homo sapiens), P14416; DiscoveRx D2 beta-arrestin cells, luminescence, 90 min; 100% = 57 uM dopamine signal; potentiation, % (test concentration not listed); actives 0.23% (n = 360,000); active = potentiation of 50% or more; inconclusive = 30% to 50%; inactive = 30% or less;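 also: compound concentration not given in the record; tested on top of an EC20 dose of dopamine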
Target sequence (P14416 whole entry, looked up): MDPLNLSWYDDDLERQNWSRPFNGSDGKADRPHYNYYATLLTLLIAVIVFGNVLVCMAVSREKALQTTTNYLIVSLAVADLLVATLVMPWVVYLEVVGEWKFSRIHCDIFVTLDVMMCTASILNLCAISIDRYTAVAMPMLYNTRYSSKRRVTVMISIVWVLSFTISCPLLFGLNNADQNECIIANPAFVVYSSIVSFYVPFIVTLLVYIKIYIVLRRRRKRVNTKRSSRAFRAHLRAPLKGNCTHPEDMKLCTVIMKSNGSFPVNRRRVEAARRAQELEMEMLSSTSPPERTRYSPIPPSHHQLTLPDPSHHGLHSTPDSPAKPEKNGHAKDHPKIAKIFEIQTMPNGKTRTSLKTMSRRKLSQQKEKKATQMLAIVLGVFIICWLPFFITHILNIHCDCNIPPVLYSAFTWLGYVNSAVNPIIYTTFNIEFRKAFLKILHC
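D2 cells co-treated with compound plus 50 nM dopamine (EC20) for 90 min at 37 deg C to detect potentiation. Beta-arrestin recruitment was read as enzyme-fragment luminescence after 1 h at ambient temperature. Full response was set by 57 uM dopamine.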
TRPML1 ag = qHTS for Agonists of the Human Mucolipin Transient Receptor Potential 1 (TRPML1); TRPML1-expressing cells, Ca2+ dye fluorescence, FDSS; host cell line not named in the record; reference of the full effect not given here; Mucolipin-1 (Homo sapiens), Q9GZU1; activation, % (no concentration beside the values); actives 0.12% (n = 410,000); in the data active = activation above about 50%; inconclusive = about 30% to 50%; inactive = below about 30%; also: 0% is about no effect; the text of the record puts the active cut at 80%
Target sequence (Q9GZU1 whole entry, looked up): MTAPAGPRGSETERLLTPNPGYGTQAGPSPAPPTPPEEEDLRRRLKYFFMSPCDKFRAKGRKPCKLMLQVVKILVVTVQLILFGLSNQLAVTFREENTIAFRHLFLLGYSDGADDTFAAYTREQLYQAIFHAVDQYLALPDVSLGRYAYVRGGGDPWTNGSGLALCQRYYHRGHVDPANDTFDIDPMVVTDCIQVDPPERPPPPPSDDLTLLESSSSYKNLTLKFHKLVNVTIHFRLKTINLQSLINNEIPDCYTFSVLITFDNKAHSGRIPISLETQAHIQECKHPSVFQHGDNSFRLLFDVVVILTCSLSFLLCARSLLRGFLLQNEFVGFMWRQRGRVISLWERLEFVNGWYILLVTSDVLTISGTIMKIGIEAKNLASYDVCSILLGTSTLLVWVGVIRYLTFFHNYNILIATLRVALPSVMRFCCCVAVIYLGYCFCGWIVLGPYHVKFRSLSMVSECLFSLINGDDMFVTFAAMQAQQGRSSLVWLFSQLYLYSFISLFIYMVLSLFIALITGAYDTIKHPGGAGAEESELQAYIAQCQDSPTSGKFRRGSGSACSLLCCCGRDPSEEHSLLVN
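Tetracycline-induced TRPML1-DL cells are seeded and incubated overnight before loading with a no-wash Ca2+ dye and quencher. Agonist activity is taken from the 110 s fluorescence read following compound pin-transfer on an FDSS, before EC80 54-4 challenge.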
Six1-Eya2 blk = qHTS Assay for Inhibitors of the Six1/Eya2 Interaction | Homeobox protein SIX1 (Homo sapiens) + Protein phosphatase EYA2 (Homo sapiens), … | AlphaScreen GST-Six1/His-Eya2 binding, biochemical; active compounds read low; control for the full effect not named in the record | activity change, % (test concentration not listed) | actives 0.56% (n = 360,000); in the data active = activity change below about -65%; inconclusive = about -30% to -65%; inactive = above about -30%; also: % is scaled to controls: 0 for no effect and ±100 for the full control effect
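AlphaScreen luminescence read after one hour at 37 °C in darkness. Pin-transferred compounds met GST-Six1 and His-Eya2 protein (5X stock 250 nM/500 nM) plus glutathione donor and Ni-chelate acceptor beads (5X, 50 ug/mL).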
PINK1 modulator = A Quantitative High throughput Screen to Identify Chemical Modulators of PINK1 Expression. PINK1 immunofluorescence, high-content cytometry, 24 h. Potency, µM (titrated, usually from 76.6 µM), for the others: at the highest dose activation (PINK1 increase), actives largely listed as activators. actives 0.2% (n = 410,000); active = well fitted activation curve with a large enough effect; inconclusive = small, poorly fitted or top-dose-only effect; inactive = flat fitted curve, though single readings scatter; cell line not stated here;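 also: potency is read from the fitted curve at half-maximal effect; % of control where 0% means no effect; nearly all actives have a fitted effect of over 65% in size; a mitochondrial uncoupler was the plate control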
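A stable cell line was treated with compounds at 5 concentrations for 24 hours, with CCCP as control. PINK1 levels and mitochondrial localization were measured by immunofluorescence with mitochondrial, cell and nuclear markers after fixation, read by laser-scanning cytometry.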
TRPML1 inh = qHTS for Inhibitors of the Human Mucolipin Transient Receptor Potential 1 (TRPML1) | Mucolipin-1 (Homo sapiens), Q9GZU1 | TRPML1-inducible cells, Ca2+ dye fluorescence, FDSS; active compounds read low; inhibition of EC80 agonist-evoked calcium signal | activity change, negative = inhibition, % (test concentration not listed) | actives 0.02% (n = 390,000) | AID 624415, 2012; in the data active means activity change below about -50%; inconclusive means about -30% to -50%; inactive means above about -30%;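 also: stimulus is agonist 54-4 at its EC80 concentration; % is scaled to controls: 0 for no effect and ±100 for the full control effect; compound concentration not given in the record; the text of the record puts the active cut at -80%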
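Tet-induced TRPML1-DL cells loaded with Ca8 no-wash calcium dye were read kinetically on FDSS. Compound addition was followed by EC80 agonist 54-4 (4 uM final); inhibition was read over 110 s.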
D2 agonist = Beta-Arrestin HTS for Positive Allosteric Modulators of the Human D2 Dopamine Receptor: Agonists. D(2) dopamine receptor (Homo sapiens), P14416. DiscoveRx PathHunter D2 beta-arrestin, luminescence, 90 min; 100% = 57 uM dopamine signal. activation, % (no concentration beside the values). actives 0.084% (n = 360,000). AID 624465, 2012; in the data active = activation above about 40%; inconclusive = about 15% to 40%; inactive = below about 15%; also: compound concentration not given in the record; the text of the record calls up to 30% inactive
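DiscoveRx PathHunter D2 beta-arrestin cells (2,100/well) attached overnight, then compound-stimulated 90 min at 37 C in HBSS/10 mM HEPES/0.1% Tween-20 buffer; beta-galactosidase complementation read by luminescence after 1 h at ambient temperature. Dopamine 57 uM final (EC100) as control.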
The depositor's hits bear a star; u = inconclusive; x = not tested or not shown; & = joins results of further samples; [ ] = remark or other dose.

SMILES	D2 potentiator	TRPML1 ag	Six1-Eya2 blk	PINK1 modulator	TRPML1 inh	D2 agonist
O=C(COC(=O)CNC(=O)c1ccccc1)NCc1ccc2c(c1)OCO2	-4	2.6	-2	-3.2%	2	1.7
CCOC(=O)c1cccc(NC(=O)CSc2ncc3c(n2)-c2ccc(Cl)cc2N(Cc2ccccc2)S3(=O)=O)c1	x	-0.6	x	0.1%	1	x
CCOc1ccccc1NC(=O)NC1(C(=O)NCc2cccnc2)CCCCC1	-10	0.4	1	3.8%	46	0.6
CCOc1cc(/C=N/NC(=O)COc2nc(C)cc(COC)c2C#N)ccc1O	-3	1.3	u	0.1%	-27	-0.7
COc1cc(SC)ccc1C(=O)OCC(=O)NC1CCCCC1	-8	0.5	0	3.5%	-8	0.9
Cc1ccc(CNC(=O)c2cc(-c3ccccc3)nn2CC2CC(c3cccnc3)=NO2)cc1 (configuration not stated)	-7	-0.5	0	-0.4%	-7	1.6
C=CCNC(=O)c1nc2ccccc2s1	-6	-1.1	1	-1.0%	-7	-1.1
Cc1ccnc(NS(=O)(=O)c2ccc(NS(=O)(=O)c3ccccc3)cc2)n1	-3	-0.6	9	0.4%[38.3 µM]	3	-2.4
O=C(NC1(C(=O)O)CCCC1)c1ccccc1	-3	0.3	-1	3.7%	21	-1.5
Cn1c(=O)n(CCCO)c(=O)c2c1nc1n2CCCN1Cc1ccccc1	-13	1.0	-10	1.1%	8	-13
CC(/C=C/c1ccco1)=N/NC(=O)OC(C)(C)C	-13	-0.4	-1	-1.9%	24	-1.8
COc1ccc(NC(=O)NC(C)C2CC3CCC2C3)cc1 (configuration not stated)	-6	0.5	2	0.9%	6	1.0

Complete entries, quoted from the list. Order of screens: D2 potentiator | TRPML1 ag | Six1-Eya2 blk | PINK1 modulator | TRPML1 inh | D2 agonist
COc1cc(SC)ccc1C(=O)OCC(=O)NC1CCCCC1 is listed with -8 | 0.5 | 0 | 3.5% | -8 | 0.9
O=C(NC1(C(=O)O)CCCC1)c1ccccc1 is listed with -3 | 0.3 | -1 | 3.7% | 21 | -1.5

Additional compounds follow:
SMILES	D2 potentiator	TRPML1 ag	Six1-Eya2 blk	PINK1 modulator	TRPML1 inh	D2 agonist
Cc1ccc(S(=O)(=O)N(C)c2ccc(N)cc2)cc1	-17	-0.2	5	x	-11	0.1
CC1(c2cnc(Nc3ccccc3)s2)CCC(=O)O1 (configuration not stated)	-12	-0.1	-4	0.3%	0	-3.6
Nc1nc(-c2ccccc2)c(N=Nc2cccnc2)s1	-10	2.0	0	4.1%	0	-2.4
CSCCC(NC(=O)OCc1ccccc1)C(=O)NCc1cccnc1 (configuration not stated)	0	-0.6	5	0.6%	-5	1.7
COc1ccccc1C(=O)Nc1c(C(=O)Nc2cc(Cl)ccc2C)sc2nc(C)cc(C)c12	x	2.7	x	-0.5%	-12	x
CC1CCN(C(=O)CSc2nnc(-c3cc4ccccc4cc3O)n2Cc2ccco2)CC1	-6	-0.3	-9	-8.9%[38.3 µM]	5	-5.1
Cc1ccc(S(=O)(=O)N[C@@H](Cc2ccccc2)C(=O)N2CCC[C@@H]2C(=O)O)cc1	-6	-1.3	3	-0.9%	-4	-0.5
NS(=O)(=O)c1ccc(NC(=O)CSc2ncnc3ccccc23)cc1	-7	0.4	2	9.9%	-11	-0.3
O=C(O)/C=C\c1cccc(-n2nnnc2SCc2ccccc2F)c1	0	1.1	21	-1.6%	6	-1.2
Oc1ccc(/C=N/N=C/c2ccc(O)c(O)c2)cc1O	4	-0.5	-24	3.0%	-20	10
COc1cccc(NC(=O)C(NCCc2ccc(S(N)(=O)=O)cc2)c2ccccc2)c1 (configuration not stated)	-9	-0.4	2	-1.0%	28	0.1
COc1ccc(/C=C/C(=O)C(C)(C)C)cc1OC	-43	2.2	7	-0.1%	1	-4.8
O=C(NCc1ccc(Cl)cc1)C(=O)NCC(c1cccnc1)N1CCN(c2ccc(F)cc2)CC1 (configuration not stated)	-13	-0.5	0	1.8%	20	2.6
Cc1ccc(S(=O)(=O)N(C)Cc2cc3ccccc3[nH]c2=O)cc1	-9	-0.2	3	-2.8%	-9	0.2
COc1ccc(-c2cc(C(=O)N3CCN(c4ccccc4OC)CC3)no2)cc1OC	-6	u	30	4.0%	32	-2.4
O=c1cc(O)c2c(=O)n(-c3ccccc3)c3c(c2o1)CCCCCC3	-23	0.8	-3	22%	-15	-5.3
CCOC(=O)N1CCN(C(=O)c2cccn3c(=O)c4cc(Cl)ccc4nc23)CC1	-1	1.1	7	-3.7%[38.3 µM]	24	-1.7
COc1ccc(-c2[nH]nc3nc(-c4cc(Br)ccc4OC)cc(C(=O)O)c23)cc1	x	-0.5	x	-0.1%	16	x
O=C(Nc1ccccc1)/C(=C\c1ccncc1)NC(=O)c1ccccc1	-5	-0.2	3	-0.8%	-4	-0.6
O=C(O)c1ccc2c(=O)n(-c3ccccc3F)c(=S)[nH]c2c1	-8	-0.2	7	1.9%	-16	-3.4
Cc1cc(C(=O)Nc2c[nH]c(=O)[nH]c2=O)ccc1[N+](=O)[O-]	-10	-0.1	5	-1.2%	-14	-4.3
CCC1NC(=S)N(C2CCCCC2)C1=O (configuration not stated)	0	1.1	4	4.9%[38.3 µM]	41	-3.1
CN(C)/C=C/C(=O)c1cc(N2CCOCC2)ccc1[N+](=O)[O-]	-2	-1.2	0	0.1%	-4	-3.3
COC(=O)C1N[C@@H]([C@@H](NC(=O)COc2ccccc2)C(=O)NC2CC2)SC1(C)C (some centres not stated)	-3	-0.5&-0.6	1	-0.4%	-8	0.7

Structural class, the entries above with a tert-butyl group (2)
SMILES	D2 potentiator	TRPML1 ag	Six1-Eya2 blk	PINK1 modulator	TRPML1 inh	D2 agonist
CC(/C=C/c1ccco1)=N/NC(=O)OC(C)(C)C	-13	-0.4	-1	-1.9%	24	-1.8
COc1ccc(/C=C/C(=O)C(C)(C)C)cc1OC	-43	2.2	7	-0.1%	1	-4.8

Next part:
SMILES	D2 potentiator	TRPML1 ag	Six1-Eya2 blk	PINK1 modulator	TRPML1 inh	D2 agonist
CCOC(=O)c1cnc2c(C(F)(F)F)cccc2c1N1CCOCC1	-9	1.6	5	-1.8%	-7	-2.8
CCOC(=O)CCc1c(C)c2ccc(OCC(=O)N3CCOCC3)c(C)c2oc1=O	-1	-0.3	2	-0.2%	11	5.2
CCCCCn1c(CN2CCN(c3cccc(Cl)c3)CC2)nc2c1c(=O)n(C)c(=O)n2C	-17	1.9	-8	x	-6	0.8
Cc1c(N=Cc2cc(Br)cc(Br)c2O)cccc1C(=O)O	-41	2.1	-10	-2.1%	8	-6.6
CCCn1c(SCC(=O)N2CCCC2=O)nc2ccccc2c1=O	-13	0.8	3	2.2%	9	-1.6
CCOC(=O)c1c(-c2ccc(C)cc2)csc1NC(=O)c1cc(=O)c2ccc(C)cc2o1	x	0.1	x	5.9%	-6	x
COc1cc2nc(N3CCNCC3)nc(N)c2cc1OC	-18	0.1	-2	x	-2	1.1
Cc1ccc(Cc2nnc(SCC(=O)Nc3ccccc3)[nH]c2=O)cc1	-2	0.0	11	-1.5%	-12	-6.5
Cc1ccc(NC(=O)c2cccc(NC(=O)CCC(=O)O)c2)cc1C	-1	-0.3	2	1.7%	-5	-4.1
CCN1CCCC1CNC(=O)Cn1nc(C)n2c(cc3cc(F)ccc32)c1=O (configuration not stated)	-31	-0.4	5	-1.0%	4	-1.2
CCOC(=O)c1cc(-c2ccccc2)n(CC(=O)N2CCCC2)c1C	-12	-0.1	-6	2.3%	2	-1.0
COc1ccc(/C=C(\NC(=O)c2ccco2)C(=O)N2CCOCC2)cc1	-5	-0.5	1	-3.5%	4	-4.2
N#CCSc1nnc(N)s1	9	-0.5	15	1.2%	-4	-3.7
COC(=O)NC(Nc1sc2c(c1C(N)=O)CCCC2)(C(=O)OC)C(F)(F)F (configuration not stated)	9	0.0	-3	1.0%	24	5.0
CC(=O)N(C)c1ccc(NC(=S)NC(=O)/C=C/c2ccco2)cc1	-1	-1.0	-7	1.5%	2	0.9
CC(=O)NC(c1cccc(F)c1)c1nc(/C=C/c2ccccc2)cs1 (configuration not stated)	-6	-0.6	-4	1.7%	x	-3.8
O=C(NCc1nnc2c(C(F)(F)F)cc(Cl)cn12)c1cccnc1	-3	2.7	1	-0.8%	-10	1.3
O=C(NCCS(=O)(=O)N1CCCCC1)c1ccc2c(c1)OCO2	-3	0.9	2	-0.4%	-7	2.2
CCN(CC)CCOc1nnc(-c2ccc(OC)cc2)c2ccccc12	-26	-0.4	2	-0.5%	-22	0.5
CC(O)(c1cccc(F)c1)c1nc(-c2cccc(C(=O)O)c2)cs1 (configuration not stated)	-2	-0.2	4	1.9%	x	-2.9
COc1ccc(OC)c(C2C(C(=O)c3cccs3)=C(O)C(=O)N2c2cc(C)on2)c1 (configuration not stated)	-10	-0.3	3	0.5%	21	-1.1
CCOC(=O)N1CCN(C(=O)COc2ccc(Cl)cc2)CC1	-2	4.0	3	3.5%[38.3 µM]	1	-2.1
CC(C)(CC(=O)O)CC(=O)Nc1ccc(Cl)c(Cl)c1	8	0.3	4	2.5%	-5	4.6
Cc1cccc(N(C(=O)c2snc(C(N)=O)c2N)C(C(=O)NC2CCCC2)c2ccco2)c1 (configuration not stated)	-5	1.5	-5	3.6%	11	-2.6
CCOc1ccc2c(c1)n([O-])c1c([n+]2=O)CCCC1	15	0.1	2	0.4%	-13	-0.6
CC1CCN(CCCCOc2cccc(C(C)C)c2)CC1	-12	0.7	-3	0.4%	-10	-0.4
O=C(/C=C/Nc1ccccc1F)c1cccs1	-6	2.6	4	1.6%	5	-2.0
CC(C)(O)c1cc2ccc(C#Cc3ccsc3)cc2c(=O)o1	-7	-0.2	0	-0.1%	45	-3.1
CS(=O)(=O)N(CC(=O)NCc1ccco1)c1ccc2c(c1)OCO2	3	0.0	0	2.1%[38.3 µM]	19	-0.7
CC(C)(C)OC(=O)N1CCC(C(N)=O)CC1	-4	-0.1	3	-0.4%	34	-6.1
O=C(CCS(=O)(=O)c1ccc(Br)cc1)Nc1ccc(Cl)c(C(F)(F)F)c1	x	-0.3	x	0.3%	5	x
Cc1cc(=O)n(CNC(=O)c2ccccc2)c(=S)[nH]1	-1	1.2	-4	x	51	-0.6
CC(C)c1ccc(CC(=O)N2CCC2(C)C(=O)NCCC#N)cc1 (configuration not stated)	-5	-0.6	-2	1.2%	x	-5.8
O=C(O)c1ccccc1SCc1ccc2c(c1)OCO2	13	-0.7	-10	2.3%	-8	-4.4
O=C(NNC(=O)c1ccc(Cl)cc1Cl)c1cccs1	3	-0.2	9	1.1%	2	0.3
N#Cc1c(-c2c(Cl)cccc2Cl)noc1/C=C/Nc1ccc(C(=O)O)cc1	-8	0.3	12	0.1%	-3	4.1
